From PubChem
Shh pathway inh = Hedgehog pathway signaling inhibitors, primary screen, luminescence, Shh-LIGHT2 cells, Gli-luciferase. Shh-LIGHT2 Gli-luciferase reporter, 30 h. inhibition, % (concentration not given with the values). 22,000 tested, 2.1% active. AID 2313, 2010;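 active = replicate mean of 65% or more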;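 also: pathway switched on by Shh-conditioned medium diluted 1 in 25 in low serum; 100 nL library stock added to about 40 µL; 0% = median of neutral wells and 100% = positive control level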
MITF inh = inhibitors of MITF, primary screen, MITF inhibitor project, cell-based, luminescence; TRPM1 promoter luciferase, 24 h; inhibition, % (test concentration not listed); 37,000 tested, 0.28% active; AID 2240, 2010;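 active = most replicates at 85% or more, or half of them and the mean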;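 also: human melanocyte line stably carrying TRPM1 promoter luciferase reporter; 0% = vehicle wells and 100% = a positive control; the first replicate is given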
YB-1 expr inh = inhibitors of YB-1 gene expression, primary screen, cell-based, fluorescence. U2OS, qRT-PCR YB-1 vs CDIP delta delta Cp, 16 h; stronger effect = higher value; zero = DMSO, each unit about twofold. delta delta Cp (YB-1 minus CDIP) (no concentration beside the values). 30,000 tested, 0.37% active. AID 434959, 2010;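 active = delta delta Cp rounded down to an integer at or above 3, about 3 SD of DMSO wells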;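 also: higher means less YB-1 transcript or more CDIP transcript relative to DMSO; stock transfer was 100 nL into about 100 µL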
PD-1 reversal = activators reversing PD-1 mediated T-cell inhibition, primary screen, luminescence, primary human CD4 T cells, PD-L1 beads. CellTiter-Glo 96 h. activation, % (concentration not given with the values). 29,000 tested, under 10 active;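 active = replicate mean of 50% or more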;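 also: 0% = median vehicle wells and 100% = positive control; 100 nL library stock added to about 50 µL; numbers are from one replicate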
Starred values were filed as active, the others as inactive; . = no result given. Not all compounds are listed. The share of hits here may be higher or lower than overall.

Molecule	Shh pathway inh	MITF inh	YB-1 expr inh	PD-1 reversal
CC(C)NC(=O)Nc1ccc2c(c1)C(=O)N([C@H](C)CO)C[C@@H](C)[C@H](CN(C)S(C)(=O)=O)O2	.	-5	-0.16	1.2
O=C(NCc1cccnc1)c1ccc(Cl)c(S(=O)(=O)N2CCOCC2)c1	.	-17	.	1.0
Cc1noc(C)c1NC(=O)Nc1ccc2c(c1)C(=O)N([C@H](C)CO)C[C@H](C)[C@H](CN(C)C(=O)Nc1c(C)noc1C)O2	-5	-5	-0.15	0.2
C[C@@H]1CN([C@H](C)CO)C(=O)Cc2cc(NC(=O)CCCCCC(=O)Nc3ccccc3N)ccc2O[C@H]1CN(C)Cc1ccc(-c2ccccc2)cc1	.	10	-0.16	-0.3
O=C(CSc1nnc(-c2ccccc2)n1-c1ccccc1)c1cccc([N+](=O)[O-])c1	.	6	.	-1.1
C[C@H]1CN([C@@H](C)CO)C(=O)c2cccc(NS(=O)(=O)c3ccc(F)cc3)c2O[C@H]1CN(C)Cc1ccc(-c2ccccc2)cc1	8	13	-0.62	-2.1
Cc1cc(C(=O)Nc2cccc3c2O[C@H](CN(C)Cc2ccc(Cl)c(Cl)c2)[C@H](C)CN([C@H](C)CO)C3=O)n(C)n1	21	-17	-0.8	.
C[C@H]1CN([C@@H](C)CO)C(=O)c2cccc(NC(=O)C3CC3)c2O[C@H]1CN(C)C(=O)Nc1ccccc1	-6	10	0.36	.
CSc1nc(N/C=C(\C#N)S(=O)(=O)c2ccccc2Cl)nc(C2CC2)n1	.	10	-0.8	-1.8
O=C(NCc1ccccn1)Nc1ccc([N+](=O)[O-])cc1	.	-56	.	-1.1
NC(=O)c1ccc(N2CCN(C(c3ccccc3)c3ccccc3)CC2)nc1	37	-19	0.32	-2.5
O=C(Cn1cnc2ccccc2c1=O)Nc1ccccc1Br	.	-13	.	0.3
Cc1ccc(OCCCCSc2nc(C)cc(=O)[nH]2)c(C)c1	.	22	.	-2.1
C[C@H]1CN([C@@H](C)CO)C(=O)Cc2cc(NS(=O)(=O)c3ccc(Cl)cc3)ccc2O[C@@H]1CN(C)S(=O)(=O)c1ccc(Cl)cc1	-5	6	0.23	-0.2
COc1ccc(CN(C)C[C@@H]2Oc3ccc(NS(=O)(=O)c4ccc(OC)cc4)cc3C(=O)N([C@@H](C)CO)C[C@H]2C)cc1	5	0	-0.0046	0.0

Whole records as entered above. Order of screens: Shh pathway inh, MITF inh, YB-1 expr inh, PD-1 reversal
C[C@H]1CN([C@@H](C)CO)C(=O)c2cccc(NS(=O)(=O)c3ccc(F)cc3)c2O[C@H]1CN(C)Cc1ccc(-c2ccccc2)cc1 is listed as 8, 13, -0.62, -2.1
Cc1cc(C(=O)Nc2cccc3c2O[C@H](CN(C)Cc2ccc(Cl)c(Cl)c2)[C@H](C)CN([C@H](C)CO)C3=O)n(C)n1 is listed as 21, -17, -0.8, .
O=C(NCc1cccnc1)c1ccc(Cl)c(S(=O)(=O)N2CCOCC2)c1 is listed as ., -17, ., 1.0
C[C@@H]1CN([C@H](C)CO)C(=O)Cc2cc(NC(=O)CCCCCC(=O)Nc3ccccc3N)ccc2O[C@H]1CN(C)Cc1ccc(-c2ccccc2)cc1 is listed as ., 10, -0.16, -0.3
Cc1noc(C)c1NC(=O)Nc1ccc2c(c1)C(=O)N([C@H](C)CO)C[C@H](C)[C@H](CN(C)C(=O)Nc1c(C)noc1C)O2 is listed as -5, -5, -0.15, 0.2

(cont.)
Molecule	Shh pathway inh	MITF inh	YB-1 expr inh	PD-1 reversal
COC(=O)c1c(C(=O)OC)c2n(c1C)CSC2	7	-10	-0.2	-0.3
Cc1cc(-n2nc3ccccc3n2)c2oc(SCc3nnc(-c4ccccc4)o3)nc2c1	.	10	.	0.2
COc1ccc(NC(=O)N(C)C[C@@H]2Oc3ccc(NC(=O)NC4CCCCC4)cc3C(=O)N([C@H](C)CO)C[C@@H]2C)cc1	-17	-1	-0.05	.
COc1cc(NC(=O)COc2cc(Cl)c(Cl)cc2Cl)ccc1NC(=O)c1cc2ccccc2o1	.	13	.	-4.2
COc1ccc(-n2c(SCC(=O)Nc3ccc(F)cc3F)nnc2-c2ccco2)cc1	.	-15	.	-0.8
C[C@H]1CN([C@@H](C)CO)C(=O)c2cccc(NC(=O)NC3CCCCC3)c2O[C@H]1CN(C)Cc1ccc2c(c1)OCO2	-38	28	0.32	1.8
CCOC(=O)c1c(NC(=O)c2ccccc2N(C)S(C)(=O)=O)sc2c1CCCC2	.	-7	.	-0.7
C[C@H](CO)N1C[C@H](C)[C@@H](CN(C)C(=O)Nc2ccc3c(c2)OCO3)Oc2ccc(NS(=O)(=O)c3ccc(Cl)cc3)cc2C1=O	.	1	-0.28	-0.7
Cc1noc(C)c1NC(=O)N(C)C[C@@H]1Oc2c(NS(C)(=O)=O)cccc2C(=O)N([C@@H](C)CO)C[C@@H]1C	-3	-2	-0.1	1.9
Cc1ccc(-c2csc3ncnc(SCc4csc(C)n4)c23)cc1	.	23	.	-5.2
COC(=O)c1cc(OC)c(OC)cc1NC(=O)COc1ccc(Br)cc1Cl	.	8	.	-0.8
O=C(Nc1cccc(S(=O)(=O)C(F)F)c1)c1ccc(S(=O)(=O)N2CCOCC2)cc1	.	2	.	1.5
C[C@H](CO)N1C[C@H](C)[C@@H](CN(C)CC2CCCCC2)Oc2c(NC(=O)Nc3ccccc3)cccc2C1=O	-10	22	0.057	-3.2
C[C@@H]1CN([C@H](C)CO)C(=O)c2cccc(NC(=O)C3CCCCC3)c2O[C@H]1CN(C)Cc1ccc(Oc2ccccc2)cc1	17	31	-0.48	-1.8
Cc1noc(C)c1NC(=O)N(C)C[C@@H]1Oc2ccc(NS(C)(=O)=O)cc2CC(=O)N([C@H](C)CO)C[C@H]1C	-14	-8	-0.13	1.3
O=C(COc1ccc(N2CC(C(=O)O)CC2=O)cc1)Nc1ccc(Cl)c(Cl)c1 (stereo not drawn)	.	-8	.	0.7
CNC[C@H]1Oc2ccc(N)cc2C(=O)N([C@@H](C)CO)C[C@@H]1C	-12	4	-0.028	0.9
CNC[C@H]1Oc2ccc(NC(=O)C3CCCCC3)cc2C(=O)N([C@H](C)CO)C[C@H]1C	-22	-3	0.65	1.9
C[C@H](CO)N1C[C@H](C)[C@@H](CN(C)C(=O)Nc2ccccc2)Oc2ccc(NC(=O)CCN3CCOCC3)cc2C1=O	.	-5	-0.62	-3.3
CC(C)NC(=O)Nc1ccc2c(c1)C(=O)N([C@@H](C)CO)C[C@@H](C)[C@@H](CN(C)Cc1ccc3c(c1)OCO3)O2	.	-11	-0.29	1.2
Cc1noc(C)c1NC(=O)Nc1ccc2c(c1)C(=O)N([C@H](C)CO)C[C@H](C)[C@@H](CN(C)C(=O)Nc1ccc3c(c1)OCO3)O2	-65	1	-0.1	.
COc1cccc(OCC(=O)Nc2cc([N+](=O)[O-])ccc2OC)c1	.	35	.	-3.1
C[C@H](CO)N1C[C@H](C)[C@H](CN(C)S(=O)(=O)c2cn(C)cn2)Oc2ccc(NS(=O)(=O)c3ccccc3)cc2C1=O	55	-2	.	2.4
C[C@@H]1CN([C@@H](C)CO)C(=O)c2cccc(NS(C)(=O)=O)c2O[C@H]1CN(C)Cc1ccncc1	-15	4	0.021	2.0
C[C@@H]1CCCCO[C@@H](CN(C)C(=O)c2ccccc2)[C@@H](C)CN([C@H](C)CO)C(=O)c2cc(NC(=O)CCC(F)(F)F)ccc2O1	-11	-6	-0.34	1.1
CCCCCCCNS(=O)(=O)c1cccc2c(Cl)cccc12	43	1	0.35	-3.7
Cc1ccc(S(=O)(=O)Nc2ccc3c(c2)C(=O)N([C@H](C)CO)C[C@H](C)[C@H](CN(C)C(=O)Cc2ccccc2)OCCCC[C@@H](C)O3)cc1	.	5	0.012	-1.4
C[C@H]1CN([C@@H](C)CO)C(=O)c2cc(NC(=O)C3CCCCC3)ccc2O[C@H]1CN(C)S(=O)(=O)c1ccccc1	-9	-14	0.16	-1.6
C[C@@H]1CN([C@@H](C)CO)C(=O)c2cccc(NC(=O)c3ccncc3)c2O[C@@H]1CN(C)Cc1ccc(-c2ccccc2)cc1	-14	-5	0.26	-1.7
C[C@@H]1CN([C@H](C)CO)C(=O)c2cccc(NS(=O)(=O)c3cn(C)cn3)c2O[C@H]1CN(C)C	-25	0	-0.058	.
Cn1c(=O)c2c(O)c(C=Nc3ccc(Cl)cc3)c(=O)n(C)c2n(C)c1=O	-22	10	-0.14	-0.7
COc1ccc(-c2nnc(SCC(=O)Nc3c(F)cc(F)cc3Br)n2C)cc1	.	7	.	-1.9
C[C@@H]1CN([C@H](C)CO)C(=O)c2cccc(NS(=O)(=O)c3ccc(Cl)cc3)c2O[C@@H]1CN(C)Cc1ccc(C(F)(F)F)cc1	-22	7	-0.68	-2.4
Cc1cccc(OCC(=O)Nc2cccc(-c3nnc(-c4ccco4)o3)c2)c1C	.	-2	.	1.9
COc1ccc(CN(C)C[C@@H]2Oc3ccc(NS(=O)(=O)c4ccc(Cl)cc4)cc3CC(=O)N([C@@H](C)CO)C[C@@H]2C)cc1	.	-2	-0.21	0.8
CC(C)NC(=O)Nc1ccc2c(c1)CC(=O)N([C@@H](C)CO)C[C@@H](C)[C@@H](CN(C)Cc1ccc(C(F)(F)F)cc1)O2	-7	-13	-0.08	-1.2
O=C(CSc1nnc(-c2cccc(Cl)c2)n1-c1ccccc1)Nc1ccc(F)c(F)c1	.	-4	.	0.9
N#C/C(N=Cc1cccs1)=C(\C#N)NCc1c(F)cccc1Cl	22	45	-0.026	-0.6
O=C(Nc1cccnc1)C1CC(c2c(F)cccc2Cl)=NO1 (stereo not drawn)	.	18	.	-0.3
O=C(CSc1nc(-c2ccc(F)cc2)cs1)Nc1ccc(N2CCOCC2)c(Cl)c1	.	-21	.	-0.3
CNC[C@H]1Oc2ccc(NC(=O)Nc3ccc(F)cc3)cc2C(=O)N([C@H](C)CO)C[C@H]1C	5	-8	-0.29	0.9
Cc1cc(OCC(=O)Nc2ccc(O)c(-c3nc4ccccc4o3)c2)ccc1Cl	.	42	.	-7.4
COc1ccc(NC(=O)N(C)C[C@@H]2Oc3ccc(NC(=O)CCN4CCOCC4)cc3C(=O)N([C@@H](C)CO)C[C@H]2C)cc1	.	0	-0.016	1.3
COc1ccc(NC(=O)N(C)C[C@@H]2Oc3ccc(NS(=O)(=O)c4ccc(OC)cc4)cc3C(=O)N([C@H](C)CO)C[C@@H]2C)cc1	.	12	-0.14	.
CCOc1ccc(Cl)cc1S(=O)(=O)NC1CC(C)(C)NC(C)(C)C1	.	4	.	3.2
C[C@@H]1CN([C@@H](C)CO)C(=O)c2cccc(NS(=O)(=O)c3ccccc3)c2O[C@H]1CN(C)S(=O)(=O)c1cccs1	-34	-1	0.38	.
C[C@H](CO)N1C[C@H](C)[C@H](CN(C)S(=O)(=O)c2ccc(F)cc2)Oc2c(NC(=O)Nc3ccccc3)cccc2C1=O	100*	-14	0.2	-1.0
C[C@@H]1CCCCO[C@@H](CN(C)C(=O)Nc2ccc(C(F)(F)F)cc2)[C@@H](C)CN([C@H](C)CO)C(=O)c2cc(NC(=O)Nc3ccc4c(c3)OCO4)ccc2O1	.	-9	-0.15	0.1
COC(=O)C1=COC(O[C@@H]2O[C@H](CO)[C@@H](O)[C@H](O)[C@H]2O)[C@@H]2[C@@](C)(O)[C@@H](OC(=O)/C=C\c3ccccc3)C[C@]12O (stereo partly drawn)	-39	.	0.44	.
COc1ccc(CN(C)C[C@H]2Oc3ccc(NS(=O)(=O)c4cccs4)cc3C(=O)N([C@@H](C)CO)C[C@@H]2C)cc1	-6	1	0.37	0.5
C[C@H]1CN([C@@H](C)CO)C(=O)Cc2cc(NS(=O)(=O)c3ccc(Cl)cc3)ccc2O[C@H]1CN(C)C(=O)Nc1ccc2c(c1)OCO2	.	-6	-0.15	0.7
O=C(CSc1nnc(-c2ccc(C(F)(F)F)cn2)o1)Nc1cccc(Cl)c1	-98	-81	-0.2	0.8
CC(C)NC(=O)Nc1cccc2c1O[C@H](CN(C)S(=O)(=O)c1cccs1)[C@@H](C)CN([C@@H](C)CO)C2=O	-21	-12	-0.12	0.0
C[C@@H]1CCCCO[C@H](CN(C)S(=O)(=O)c2cn(C)cn2)[C@@H](C)CN([C@H](C)CO)C(=O)c2cc(NS(=O)(=O)c3cccs3)ccc2O1	3	-2	-0.14	.
